Screening results from PubChem BioAssay.
Sfp inh – blocks B. subtilis Sfp PPTase activity; Q9F4F7; Biochemical Sfp PPTase activity, qHTS; Potency, µM, for the others: max response, negative = inhibition, usual class: inhibitors; 310,000 tested, 3.5% active; AID 1490; active = well fitted inhibition curve with a large enough effect; inconclusive = small, poorly fitted or top-dose-only effect, or another doubt; inactive = no such curve, though single readings can be large or run the other way;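 note: the enzyme is Sfp with the accession as filed and its product quenches rhodamine fluorescence; potency is the fitted concentration of half-maximal effect; 0% = enzyme reaction without inhibitor and -100% = no enzyme wells; top concentration of the series not given in the record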
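Step 1, compound plus 15 nM Sfp-PPTase, 15 min, room temperature. Step 2, add rhodamine-CoA (5 uM) and BHQ-2-YbbR (12.5 uM). Step 3, read 525/598 nm fluorescence at 0 and 30 min.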
Menin-MLL FL inh – inhibitors of human menin-MLL interaction, wild-type MLL peptide; Fluorescence polarization, fluorescein-MLL peptide displacement from menin; FP activity change, % at 61.4 µM; 290,000 tested, under 10 active; AID 1766; inconclusive = falling polarisation curve, or a change in total fluorescence; inactive = total fluorescence flat and polarisation flat or rising; no compound was filed as active; the % refers to the polarisation; negative = inhibition;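 note: % of control where 0% means no effect; inhibitors lower the polarisation; unlabelled MLL peptide was the positive control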
TRPV1 potentiator – human TRPV1 potentiation; Q8NER1; TRPV1-expressing cells, Fluo-8 calcium influx, capsaicin EC20 potentiation; host cell line not named in the record; control for the full effect not named in the record; potentiation, % at 8.33 µM; 320,000 tested, 0.02% active; active means potentiation above 80%; inconclusive means 30% to 80%; inactive means below 30%; note: 0% is about no effect
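Fluo-8 calcium influx in TRPV1-expressing cells, kinetic read (ex 480/em 520 nm). Compound added and read 3 min for agonist activity, followed by capsaicin at EC20 final and 2 min further read for enhancement.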
ClpP mod – qHTS Assay for Activators of ClpP | ATP-dependent Clp protease proteolytic subunit (Bacillus subtilis (strain 168)), P80244 | purified B. subtilis ClpP, FRET peptide cleavage, 20 min | Potency, µM (top dose mostly 57.5 µM), for the others: at the highest dose activity change, negative = active | 340,000 tested, 1.9% active | AID 651965, 2013; active = well fitted falling curve with a large enough effect; inconclusive = small, poorly fitted or top-dose-only effect; inactive = no such curve, though single readings can be large or run the other way; note: potency is the fitted concentration of half-maximal effect; the source files actives as falling curves though it sought activators and does not explain the sign; nearly all actives have a fitted effect of over 65% in size; many hits overshoot -100%
Target sequence (P80244 whole entry, looked up): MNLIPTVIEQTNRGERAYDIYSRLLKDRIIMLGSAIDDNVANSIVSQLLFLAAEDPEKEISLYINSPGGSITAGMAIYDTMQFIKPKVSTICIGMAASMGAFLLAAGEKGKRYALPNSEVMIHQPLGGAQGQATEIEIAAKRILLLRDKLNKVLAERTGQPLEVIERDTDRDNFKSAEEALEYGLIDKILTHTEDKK
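FRET quenching reversal measured ClpP activation: 10 microg/mL B. subtilis ClpP at pH 8 with the FRET-FV decapeptide, read at 430 nm after 320 nm excitation. The 20-min minus 0-min signal was scaled between DMSO/no-enzyme wells and ADEP (5.8 microM final).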
TRPML1 blocker – blocks the human TRPML1 channel | Q9GZU1 | activity change, negative = inhibition, % (no concentration beside the values) | 390,000 tested, 0.02% active | TRPML1-inducible cells, Ca2+ dye fluorescence, FDSS; hits give low values; inhibition of EC80 agonist-evoked calcium signal; in the data active means activity change below about -50%; inconclusive means about -30% to -50%; inactive means above about -30%;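 note: stimulus is agonist 54-4 at its EC80 concentration; % is set by controls: 0 for no effect and ±100 for the full control effect; compound concentration not given in the record; the text of the record puts the active cut at -80%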
Target sequence (Q9GZU1 whole entry, looked up): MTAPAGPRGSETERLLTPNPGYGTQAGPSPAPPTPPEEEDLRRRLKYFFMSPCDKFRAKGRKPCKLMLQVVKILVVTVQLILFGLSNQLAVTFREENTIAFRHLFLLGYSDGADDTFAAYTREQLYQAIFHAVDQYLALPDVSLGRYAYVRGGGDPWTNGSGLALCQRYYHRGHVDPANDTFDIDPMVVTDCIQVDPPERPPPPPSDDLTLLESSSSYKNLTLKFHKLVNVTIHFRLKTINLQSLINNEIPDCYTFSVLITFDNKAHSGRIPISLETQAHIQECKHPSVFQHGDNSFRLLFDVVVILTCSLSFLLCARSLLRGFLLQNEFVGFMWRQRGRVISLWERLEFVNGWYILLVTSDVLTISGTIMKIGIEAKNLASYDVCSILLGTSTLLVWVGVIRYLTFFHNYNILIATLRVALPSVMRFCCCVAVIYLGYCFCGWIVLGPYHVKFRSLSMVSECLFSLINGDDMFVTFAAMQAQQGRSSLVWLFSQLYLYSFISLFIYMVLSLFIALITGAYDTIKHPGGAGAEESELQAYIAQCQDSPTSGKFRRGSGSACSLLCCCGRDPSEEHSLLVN
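Calcium fluorescence in TRPML1-DL cells induced overnight with Tet: a 110 s read after compound pin addition, then a 110 s antagonist read after challenge with 54-4 at 4 uM final (EC80).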
PINK1 expr mod – modulators of PINK1 expression; PINK1 immunofluorescence, high-content cytometry, 24 h; Potency, µM (doses to about 76.6 µM), inactives show top-dose activation (PINK1 increase), most hits filed as activators; 410,000 tested, 0.2% active; active = well fitted activation curve with a large enough effect; inconclusive = small, poorly fitted or top-dose-only effect; inactive = flat fitted curve, though single readings scatter; cell line not stated here;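 note: potency is the fitted concentration of half-maximal effect; % of control where 0% means no effect; nearly all actives have a fitted effect of over 65% in size; a mitochondrial uncoupler was the plate control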
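Stable cell line, 250 cells/well, 12 h attachment; compounds pinned at 5 concentrations, 24 h; CCCP control. Fixed with nuclear dye, primary antibodies 12 h at 10 degrees C, secondary plus cell stain; laser-scanning cytometer read.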
TRPML1 ag – activates the human TRPML1 channel. activation, % (no concentration beside the values). Q9GZU1. 410,000 tested, 0.12% active. TRPML1-expressing cells, Ca2+ dye fluorescence, FDSS; host cell line not named in the record; reference of the full effect not given here; in the data active = activation above about 50%; inconclusive = about 30% to 50%; inactive = below about 30%; note: 0% is about no effect; the text of the record puts the active cut at 80%
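TRPML1-DL cells, Tet-induced overnight (~16 h, 37 degrees C), loaded 45-90 min at room temperature with Ca8 no-wash calcium dye plus quencher. FDSS fluorescence: 10 s baseline, compound pin-transfer, 110 s agonist read, then EC80 54-4 (4uM final) and 110 s antagonist read.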
* = called active by the depositor; ? = inconclusive; / = no result given; & = joins results of further samples; [ ] = remark or other dose.

SMILES	Sfp inh	Menin-MLL FL inh	TRPV1 potentiator	ClpP mod	TRPML1 blocker	PINK1 expr mod	TRPML1 ag
Cc1ccc(-n2cc(CNCCc3cscn3)c(-c3ccc(F)cc3)n2)cc1	-3%	-0.4	-17	/	22	-1.2%	0.7
CC(C)NC(=O)c1c(CSc2ccccc2)noc1C(=O)NCc1ccccc1	3%	-1.4	-25	-3.5%	23	3.5%	-0.3
CC(C)(C)C(=O)CSc1ncnc2c1cnn2-c1ccccc1	21%	0.7	10	/	6	4.7%	0.1
C=CCNC(N)=S	-16%&-23%	3.6	-1	-1.8%	5	-0.7%	0.9
O=C(COc1cccc(C(F)(F)F)c1)Nc1ccc(S(=O)(=O)N2CCCCC2)cc1	/	/	-1	/	14	-2.5%	3.0
Cc1ccc(/C=C/C(=O)NC2CCS(=O)(=O)C2)cc1 (stereo not drawn)	17%	-0.3	-14	-1.6%	-26	-1.6%	0.7
Clc1cccc(OCCCn2ccnc2)c1	7%	-1.1	-6	0.4%	12	-1.4%	0.0
Oc1c(Cl)cc(Cl)c2cccnc12	-21%&10%	-2.7&-1.3	?	1.9%	-2	7.7%	-0.2
COc1ccc(/C=N/NC(=O)Cn2nc([N+](=O)[O-])cc2C)c(OC)c1OC	13%	4.1	/	-3.6%	-6	0.8%	-0.4
COc1ccc(S(=O)(=O)N2CCCCC2)cc1NC(=O)c1cccnc1SC	1%	0.9	1	1.0%	-17	-0.9%	0.2
COc1cccc(NC(=O)c2oc3ccccc3c2NC(=O)c2ccc(F)c(F)c2)c1	/	/	/	?	15	0.3%	-0.3
CC(C)NC(=O)NC(=O)COC(=O)c1cc[n+]([O-])cc1	16%	5.5	9	/	16	1.9%	1.3
CCc1nccn1S(=O)(=O)c1ccc2ccc(C)cc2c1	-6%	-2.1	7	-1.5%	-2	2.0%	0.9
O=c1c2ccccc2nc2ccc(N3CCOCC3)nn12	10%	1.5	-9	-2.3%	-11	-0.8%	0.1
COc1ccc(N2C(=O)CC(Sc3ncn[nH]3)C2=O)c(OC)c1 (stereo not drawn)	5.6µM*	-1.2	-2	-1.7%	22	3.1%[38.3 µM]	0.7
COc1ccc(C2CC(c3cccs3)=NN2c2ccc(C=O)cc2)cc1 (stereo not drawn)	-7%	?	17	-24%	-11	-3.7%	?
CCN(CC)S(=O)(=O)c1ccc(Cl)c(NC(=O)COC(=O)c2nc3nc(C)cc(C)n3n2)c1	/	/	/	2.2%	16	0.7%	4.3
N/C(=N\OC(=O)CCC1CCCCC1)c1cccnc1	21%	3.4	-24	-0.5%	-3	5.7%	-0.6
CC(NC(=O)Nc1nccs1)(C(F)(F)F)C(F)(F)F	12%	-0.6	-5	-0.4%	-1	2.6%	2.1
Cc1ccc(C)c(Cn2nc3c4ccccc4n(Cc4ccccc4)cc-3c2=O)c1	21%	0.4	-8	/	7	9.7%	1.1
CN(C)/C=C/C(=O)c1ccc(C(F)(F)F)cc1F	23%	0.2	4	-1.8%	6	2.5%	-0.6
CC(C)NCC(O)(c1ccc(Cl)cc1)c1ccc(Cl)cc1	10%	-0.5	-14	/	10	10.0%	1.6
CCCCC(=O)NC1(C(F)(F)F)C(=O)Nc2c1c(=O)[nH]c(=O)n2-c1ccc(F)cc1 (stereo not drawn)	/	/	/	-2.6%	-4	2.5%	0.1
CCOC(=O)c1c(S(=O)(=O)N2CCC(C(=O)NCc3ccccc3OC)CC2)c(C)n(C)c1C	/	/	/	0.2%	-7	2.1%	-1.4
C=CCOc1ccc(C2/C(=C(\O)c3ccc(F)cc3)C(=O)C(=O)N2CCCN(C)C)cc1 (stereo not drawn)	-6%	0.5	3	-6.5%	-8	-0.9%	0.7
COc1ccc2c(c1)C(=O)CC2	/	/	/	4.0%	/	1.4%	-0.3
O=C(CCc1ccccc1)Nc1c(F)c(F)c(F)c(F)c1F	?	-0.2	-8	?	-8	-1.7%	0.3
O=C(CSCC(=O)Nc1nccs1)Nc1ccccc1	-2%	0.1	25	-0.4%	1	0.6%	-0.9
Cc1ccc2onc(CNC(=O)N3CCN(c4cc(Cl)ccc4C)CC3)c2c1	/	/	/	-1.5%	18	-0.2%	2.6
CNC(=O)CN(c1cccc(Br)c1)S(C)(=O)=O	-1%	-1.4	-18	1.9%	20	-2.7%	6.2
COCCNC(=O)NC(=O)CN1C(=O)NC(Cc2c[nH]c3ccccc23)C1=O (stereo not drawn)	5%	-0.2	-7	-4.3%	-12	3.8%	0.0
O=C(O)c1c2c(nc3ccc(S(=O)(=O)N4CCC(C(=O)N5CCCCC5)CC4)cc13)CCCC2	2%	?	-2	1.0%	-7	0.1%	-0.4
CN(c1cccc(Cl)c1)S(=O)(=O)c1cccc(C(=O)Nc2nc3ccccc3[nH]2)c1	34%[activator]	10	-1	-27%	6	-0.5%	0.2
CCOC(=O)C1(Cc2cccc(Cl)c2)CCCN(C(=O)c2cnn(CC)c2)C1 (stereo not drawn)	3%	3.2	-18	32µM*	11	3.2%	1.1
CCN(Cc1ccncc1)C(=O)CCc1nnc(CCC2CCCCC2)o1	?	0.6	2	/	-13	-2.0%	-0.2
O=C(NCc1ccco1)C(Cc1ccccc1)N1C(=O)C2C3C=CC(C3)C2C1=O (stereo not drawn)	?	1.7	-11	-1.9%	1	0.9%	0.8
CCOc1ccc(S(=O)(=O)NCc2ccco2)c2ccccc12	?	2.9	-15	-16%	-1	5.2%[38.3 µM]	3.3
O=C(c1ccc2oc(CCCc3ccccc3)nc2c1)N1CCCC1	3%	/	-9	1.0%	24	0.5%	3.4
CCc1ccc(NC(=O)[C@H](Cc2ccccc2)NC(=O)C2CCN(C(=O)[C@@H](N)CC(C)C)CC2)cc1	4%	0.2	10	0.1%	/	3.2%	/
CC(Sc1ccccc1)C(=O)NN=C1CCCCCCC1 (stereo not drawn)	6%	-5.5	4	/	-5	-0.9%	0.0
Cc1cc(=O)oc2c(C)c(OC(C)C(=O)NCC(O)c3ccccc3)ccc12 (stereo not drawn)	4%	1.8	-3	4.0%	-8	-0.9%	-0.5
Cc1ccccc1OCc1nc2ccccc2[nH]1	9%	4.5	-19	/	12	0.0%	1.4
Cc1ccccc1OCC(O)CN(Cc1ccccc1O)C1CCCCC1 (stereo not drawn)	4%	-4.0	-9	/	-11	0.4%	-0.9
COc1ccc(CNC(=O)c2oc3ccc(S(=O)(=O)N4CCOCC4)cc3c2C)cc1	9%	9.7	5	/	-8	0.5%	0.7
O=[N+]([O-])c1ccc2nc(NS(=O)(=O)c3ccc(Cl)cc3)sc2c1	8%	-1.5	4	/	18	3.4%	-1.0
O=C(CCCc1ccccc1)NCc1ccccc1	-12%	-2.6	-1	/	/	/	/
CCOC(=O)c1c(NC(=O)/C=C/c2ccc(C)o2)sc(C)c1C	35µM*	1.2	3	-1.3%	-8	7.3%[38.3 µM]	0.1
CC1(C)CC(C(CC(=O)Nc2nccs2)c2ccccc2)CCO1 (stereo not drawn)	0%	1.9	-14	-0.3%	-11	4.1%	-0.1
O=C(NCc1ccc(Cl)cc1)c1cc(-c2ccco2)on1	-4%	4.0	1	-3.2%	2	8.3%	-0.2
CC(C)=CCOc1ccc2ccc(=O)oc2c1	3%	1.2	11	4.1%	/	0.1%	/
Cc1cccc(NC(=O)c2ccccc2NC(=O)CCC(=O)O)c1	14%	5.8	11	-1.0%	4	2.7%	0.3
COc1ccccc1C(=O)Nc1ccnn1C1CCN(C(C)CSC)CC1 (stereo not drawn)	1%	?	-3	-0.3%	7	0.0%	0.4
Cc1nnc(SCc2ccc([N+](=O)[O-])cc2)o1	-1%	0.8	-8	/	6	-0.6%	1.5
Cc1nc(CS(=O)(=O)c2ccccc2)cc(Sc2ccc(Cl)cc2)n1	15%	-1.4	-3	-12%	58	-0.3%	1.5
Cc1cccc(C)c1NC(=O)C1(C)CCC(=O)N1C1CCN(Cc2ccccc2)CC1 (stereo not drawn)	/	/	/	-4.3%	/	-0.2%	-0.1
O=C(N1CCN(Cc2ccccc2)CC1)C12CC3CC(CC(C3)C1)C2	11%	-0.8	-13	-2.2%	26	-2.6%	1.4
C=CCn1c(/N=C/c2ccc(N(C)C)cc2)nc2ccccc21	13%	?	11	-2.7%	12	-2.3%[38.3 µM]	1.2
O=C(O)c1cccc(NC(=O)C2C3C=CC(C3)C2C(=O)O)c1 (stereo not drawn)	-10%	1.8	1	-11%	1	0.7%	-0.7
CC(=O)c1ccc(NC(=O)CSc2nnc(-c3ccco3)c(-c3ccco3)n2)cc1	8.9µM*	22	-4	/	-16	7.4%	1.0
CC(C)(CC(=O)N1CCN(c2ccc(Cl)cc2)CC1)CC1=NS(=O)(=O)c2ccccc2N1	12%	1.2	7	5.4%	29	-0.4%	0.4

One compound at a time, as listed above.
Record of Cc1cccc(NC(=O)c2ccccc2NC(=O)CCC(=O)O)c1 = Sfp inh = 14%; Menin-MLL FL inh = 5.8; TRPV1 potentiator = 11; ClpP mod = -1.0%; TRPML1 blocker = 4; PINK1 expr mod = 2.7%; TRPML1 ag = 0.3
Record of Cc1nc(CS(=O)(=O)c2ccccc2)cc(Sc2ccc(Cl)cc2)n1 = Sfp inh = 15%; Menin-MLL FL inh = -1.4; TRPV1 potentiator = -3; ClpP mod = -12%; TRPML1 blocker = 58; PINK1 expr mod = -0.3%; TRPML1 ag = 1.5

Continued.
SMILES	Sfp inh	Menin-MLL FL inh	TRPV1 potentiator	ClpP mod	TRPML1 blocker	PINK1 expr mod	TRPML1 ag
CCCN1C(=O)SC(CC(=O)Nc2ccccc2)C1=O (stereo not drawn)	-11%	5.1	-40	0.2%	4	-0.4%	-1.3
Cc1c(NC(=O)C(C)OC(=O)c2ccc([N+](=O)[O-])s2)c(=O)n(-c2ccccc2)n1C (stereo not drawn)	20%	3.4	13	-0.3%	9	0.5%	-0.4
CCOC(=O)COc1cnc2ccccc2n1	15%	2.0	2	/	-2	0.5%	1.6
O=C(Nc1ccccc1Cl)c1ccc2nccnc2c1	16%	1.7	-12	/	4	-1.0%	0.1

No enrichment for hits (roughly 4.4% active in at least one column).
